TRPV1 PAM = potentiators of human vanilloid receptor 1 (TRPV1); Q8NER1; AID 540277; 320,000 compounds, 0.02% hits; potentiation, % at 8.33 µM; TRPV1-expressing cells, Fluo-8 calcium influx, capsaicin EC20 potentiation; host cell line not named in the record; control for the full effect not named in the record; active means potentiation above 80%; inconclusive means 30% to 80%; inactive means below 30%; also: 0% is about no effect
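Fluo-8 calcium influx in TRPV1-expressing cells, kinetic read (ex 480/em 520 nm). Compound added and read 3 min for agonist activity, followed by capsaicin at EC20 final and 2 min further read for enhancement.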
TRPML1 ag = human mucolipin-1 channel agonism; Q9GZU1; 410,000 compounds, 0.12% hits; TRPML1-expressing cells, Ca2+ dye fluorescence, FDSS; host cell line not named in the record; reference of the full effect not given here; activation, % (test concentration not listed); in the data active = activation above about 50%; inconclusive = about 30% to 50%; inactive = below about 30%; also: 0% is about no effect; the text of the record puts the active cut at 80%
Target sequence (Q9GZU1 whole entry, looked up): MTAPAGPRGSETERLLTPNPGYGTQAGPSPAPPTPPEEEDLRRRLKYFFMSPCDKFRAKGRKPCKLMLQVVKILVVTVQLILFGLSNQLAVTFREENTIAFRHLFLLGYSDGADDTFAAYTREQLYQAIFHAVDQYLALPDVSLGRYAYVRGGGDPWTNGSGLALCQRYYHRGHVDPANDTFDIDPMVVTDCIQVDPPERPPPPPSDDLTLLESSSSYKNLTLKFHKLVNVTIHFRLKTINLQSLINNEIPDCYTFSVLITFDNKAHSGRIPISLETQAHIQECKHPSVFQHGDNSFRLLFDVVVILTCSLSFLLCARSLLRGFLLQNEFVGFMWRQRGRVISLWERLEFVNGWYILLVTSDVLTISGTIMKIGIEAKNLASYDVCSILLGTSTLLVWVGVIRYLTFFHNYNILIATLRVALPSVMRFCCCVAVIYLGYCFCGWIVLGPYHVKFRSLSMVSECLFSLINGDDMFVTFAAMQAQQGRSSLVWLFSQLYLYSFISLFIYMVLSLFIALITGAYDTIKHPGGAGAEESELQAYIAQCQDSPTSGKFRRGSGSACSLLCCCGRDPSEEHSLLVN
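Cells: TRPML1-DL, 1X Tet inducer, ~16 h at 37 degrees C/5% CO2. Dye: ABD Ca8 no-wash + quencher, 45-90 min RT. Read: 10 s baseline, compound add, 110 s agonist phase; 54-4 EC80 (4uM final), 110 s antagonist phase.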
Six1-Eya2 blk = inhibitors of human Six1/Eya2 interaction; Q15475+O00167; AlphaScreen GST-Six1/His-Eya2 binding, biochemical; stronger effect = lower value; control for the full effect not named in the record; activity change, % (test concentration not listed); 360,000 compounds, 0.56% hits; AID 651725; in the data active = activity change below about -65%; inconclusive = about -30% to -65%; inactive = above about -30%; also: % is scaled to controls: 0 for no effect and ±100 for the full control effect
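AlphaScreen luminescence read after one hour at 37 °C in darkness. Pin-transferred compounds met GST-Six1 and His-Eya2 protein (5X stock 250 nM/500 nM) plus glutathione donor and Ni-chelate acceptor beads (5X, 50 ug/mL).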
CtBP-E1A blk = CtBP/E1A binding inhibition. AlphaScreen GST-E1A/His-CtBP binding, 1536-well; stronger effect = lower value; control for the full effect not named in the record. activity change, % (concentration not given with the values). 340,000 compounds, 0.49% hits. AID 651724; in the data active means activity change below about -65%; inconclusive means about -30% to -65%; inactive means above about -30%; also: % is scaled to controls: 0 for no effect and ±100 for the full control effect
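In 5 uL wells, 23 nL compound meets equimolar GST-E1A and His-CtBP (5X stock 125 nM each) for 2 h, 37 °C. Beads (5X, 50 ug/mL) then 1 h, 37 °C, dark.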
D2 PAM = potentiates the human D2 dopamine receptor allosterically | DiscoveRx D2 beta-arrestin cells, luminescence, 90 min; 100% = 57 uM dopamine signal | 360,000 compounds, 0.23% hits | potentiation, % (no concentration beside the values) | P14416 | AID 624464; active = potentiation of 50% or more; inconclusive = 30% to 50%; inactive = 30% or less;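 also: compound concentration not given in the record; tested on top of an EC20 dose of dopamine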
Target sequence (P14416 whole entry, looked up): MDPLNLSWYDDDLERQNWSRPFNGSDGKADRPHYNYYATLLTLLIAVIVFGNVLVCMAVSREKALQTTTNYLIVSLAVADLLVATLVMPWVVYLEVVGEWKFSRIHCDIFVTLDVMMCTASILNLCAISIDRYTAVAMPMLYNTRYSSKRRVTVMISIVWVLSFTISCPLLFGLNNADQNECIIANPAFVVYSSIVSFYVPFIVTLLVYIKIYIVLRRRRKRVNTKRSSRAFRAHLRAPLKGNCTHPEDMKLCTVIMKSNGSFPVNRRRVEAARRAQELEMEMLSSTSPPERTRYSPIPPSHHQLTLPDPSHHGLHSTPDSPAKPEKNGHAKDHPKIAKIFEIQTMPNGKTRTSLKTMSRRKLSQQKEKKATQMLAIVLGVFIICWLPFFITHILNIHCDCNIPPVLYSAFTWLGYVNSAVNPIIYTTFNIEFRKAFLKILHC
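PathHunter D2 cells, attached overnight at 37 deg C, received compound in DMSO plus dopamine at EC20 (50 nM final) for 90 min at 37 deg C. Beta-arrestin recruitment was read as luminescence after 1 h with detection reagent at ambient temperature.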
TRPML1 blocker = blocks the human TRPML1 channel; TRPML1-inducible cells, Ca2+ dye fluorescence, FDSS; stronger effect = lower value; inhibition of EC80 agonist-evoked calcium signal; Q9GZU1; 390,000 compounds, 0.02% hits; activity change, negative = inhibition, % (concentration not given with the values); in the data active means activity change below about -50%; inconclusive means about -30% to -50%; inactive means above about -30%;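 also: stimulus is agonist 54-4 at its EC80 concentration; % is scaled to controls: 0 for no effect and ±100 for the full control effect; the text of the record puts the active cut at -80%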
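Calcium fluorescence in TRPML1-DL cells induced overnight with Tet: a 110 s read after compound pin addition, then a 110 s antagonist read after challenge with 54-4 at 4 uM final (EC80).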
* marks the source's active call; other numbers are inactive results; ? = inconclusive; nt = no result given. Rows were taken by chance; 0.95% or so of the library scored in one or more.

SMILES	TRPV1 PAM	TRPML1 ag	Six1-Eya2 blk	CtBP-E1A blk	D2 PAM	TRPML1 blocker
CCCCSc1nnc(-c2ccccc2NC(C)=O)c(=O)[nH]1	9	-0.4	3	21	-14	-5
Cc1cc2cc(C#N)c(NCCNC(=S)NCCCN3CCOCC3)nc2cc1C	-29	0.0	-21	-17	-8	3
COCCCNC(=O)c1ccc2c(=O)n(Cc3ccccc3OC)c(=S)[nH]c2c1	1	0.8	7	2	-4	-16
NC(=O)c1ccccc1NC(=O)Nc1ccc(F)c(Cl)c1	-1	0.9	2	nt	-13	1
C=CCc1cc(OC)ccc1OCCCCn1cncn1	-4	nt	4	nt	-5	nt
Cc1ccc(N2C(=O)C3C4C=CC(CNC(=S)N5CCN(c6cccc(C)c6)C(C)C5)(O4)C3C2=O)cc1 (stereo unspecified)	-7	-0.4	7	0	7	12
COc1ccc(NC(=O)C2CCC(=O)N2S(=O)(=O)c2ccc(C)cc2)c(OC)c1 (stereo unspecified)	12	0.4	0	-4	-3	-1
CCOC(=O)c1ccccc1NC(=O)CN(c1ccccc1OCC)S(C)(=O)=O	6	2.2	2	13	23	-1
O=C(/C=C/c1ccco1)NC(=S)Nc1cccc(-c2nc3ccccc3s2)c1	nt	0.5	-22	-15	-9	23
Cc1nc(SCC(=O)O)c(C#N)c(-c2ccco2)c1C(=O)N(C)C	-16	nt	3	0	-6	nt
CCOC(=O)COc1ccccc1/C=C1/NC(=O)NC1=O	-2	1.0	-19	-14	-17	-25
O=C(Nc1ccccc1Cl)Oc1ccc(Cl)cc1Cl	-13	4.7	3	nt	25	-3
COc1ccc(N2CCN(CCC(=O)c3ccc4ccccc4c3)CC2)cc1	-10	nt	-8	-6	-17	nt
Cc1ccc(S(=O)(=O)N2CCCC(C)C2)cc1 (stereo unspecified)	2	nt	-1	nt	25	nt
N#CCSc1ccccc1NC(=O)CN1C(=O)NC(CCc2ccccc2)C1=O (stereo unspecified)	nt	0.5	-4	-2	-8	16
COC(=O)[C@H](CCSC)NC(=O)NC1CCN(Cc2ccccc2)CC1	-4	0.6	0	1	-20	8
COc1cccc(NC(=O)CC2C(=O)NCCN2C(=S)Nc2ccc(F)cc2)c1 (stereo unspecified)	10	0.6	-10	-5	-6	-18
O=c1cnnc(Nc2ccc(Nc3ccccc3)cc2)[nH]1	13	-0.5	-1	-1	-9	-1
Cc1ccc(CSc2nnc(CCCCCNC(=O)OC(C)(C)C)o2)cc1	-10	1.7	16	13	-8	4
COc1cc(-c2cc(C(=O)Nc3c(Cl)cc(Cl)cc3Cl)c3ccccc3n2)cc(OC)c1OC	17	0.8	-8	-5	-14	64
COc1ccc(C(=O)NC(Oc2ccccc2)C(Cl)(Cl)Cl)cc1 (stereo unspecified)	18	1.3	7	-3	-4	31
O=C(COc1ccc(Br)cc1)Nc1ccc2c(c1)C(=O)NC2=O	-12	-0.7	1	7	-9	-14
CS(=O)(=O)N(CC(=O)N1CCOCC1)c1cc(Cl)ccc1Cl	3	0.1	6	7	-12	16
CCN1C(=NCc2cc(OC)c(OC)c(OC)c2)N[C@@H](c2cccc(C(F)(F)F)c2)C(C(=O)OC)=C1C	2	-0.2	-4	-1	-8	6
CCn1c(SCc2ccc(F)cc2)nnc1C1CCN(S(=O)(=O)c2ccc(OC)cc2)CC1	7	0.5	0	2	25	3
CCOc1ccc(C(C(=O)NC2CCCC2)N(C(=O)c2snc(C(N)=O)c2N)C2CCCC2)cc1 (stereo unspecified)	-4	-1.1	-2	-14	-8	-9
COc1cc2c(cc1[N+](=O)[O-])-c1ccccc1C2	nt	2.6	-10	4	-1	3
Cc1cccc(C)c1NC(=O)c1cnccn1	6	-0.2	11	nt	-15	11
O=S1(=O)CC(N2CCCCC2)CN1Cc1cn(Cc2ccccc2)nn1 (stereo unspecified)	nt	-0.7	17	-10	nt	nt
CC(=O)c1c(C)c[nH]c1C	1	-0.3	-1	5	-2	-15
CCC1CCCCN1S(=O)(=O)c1ccc(NC(=O)CSc2ncccc2C(=O)O)cc1 (stereo unspecified)	12	0.1	-83*	5	-13	6
CC(=O)CC1(O)C(=O)Nc2ccccc21 (stereo unspecified)	3	nt	1	-2	-5	nt
COc1ccc2[nH]c(=O)c(CN(Cc3nnnn3Cc3ccccc3)CC3CCCO3)cc2c1 (stereo unspecified)	0	0.3	-2	-6	-15	-11
O=C(C(Cc1ccccc1)N1C(=O)C2C3C=CC(C3)C2C1=O)N1CCCCC1 (stereo unspecified)	nt	-0.7	5	-7	2	18
Cc1cc(C(=O)Cn2cc([N+](=O)[O-])ccc2=O)c(C)n1CC1CCCO1 (stereo unspecified)	5	-0.2	-2	-2	-15	6
Cc1cccc(-c2nc3c(c(SCC(N)=O)n2)CCCC3)c1	-1	0.0	2	-2	-13	-7
COc1ccc(-c2oc(NC(=O)c3ccc(C)cc3)c(C#N)c2-c2ccc(OC)cc2)cc1	18	-0.8	-11	-1	-14	5
Cc1[nH]c2ccccc2c1/C=N/NC(=O)CNC(=O)c1ccc2c(c1)OCCO2	?	-0.6	-4	-24	-16	-18
Cc1ccc(NC(=O)C2CCCN(C(=O)c3ccc(Cl)cc3)C2)c(C)c1 (stereo unspecified)	8	-0.1	4	1	-6	6
Cc1cc2c(Nc3ccccc3)ncnc2s1	0	0.1	4	0	0	-11

3 structures out of the list, arranged by count of non-hydrogen atoms, low to high:
SMILES	TRPV1 PAM	TRPML1 ag	Six1-Eya2 blk	CtBP-E1A blk	D2 PAM	TRPML1 blocker
CC(=O)CC1(O)C(=O)Nc2ccccc21 (stereo unspecified)	3	nt	1	-2	-5	nt
Cc1cc2c(Nc3ccccc3)ncnc2s1	0	0.1	4	0	0	-11
CCC1CCCCN1S(=O)(=O)c1ccc(NC(=O)CSc2ncccc2C(=O)O)cc1 (stereo unspecified)	12	0.1	-83*	5	-13	6

Further entries follow:
SMILES	TRPV1 PAM	TRPML1 ag	Six1-Eya2 blk	CtBP-E1A blk	D2 PAM	TRPML1 blocker
O=C(NCc1ccco1)c1ccc(Cn2c(=O)c3ccccc3n(Cc3cccc(F)c3)c2=O)cc1	-4	2.3	-5	-1	-10	-6
CCOC(=O)c1ccc(NC(=O)C2(c3ccc(OC)cc3)CCOCC2)cc1	-6	0.5	2	3	-21	11
CCC(=O)N1CCCc2cc(S(=O)(=O)N3CCC(N4CCCCC4)CC3)ccc21	5	0.1	6	-2	-20	1
COc1ccc(-c2cnc3c(NC=O)cc(-c4ccccc4)cn23)cc1OC	nt	-1.1	-6	-9	27	nt
O=C(CN1CCC(n2cnc3cc(F)ccc32)CC1)Nc1ccccc1Br	1	0.2	7	nt	-11	51
Cc1ccc(C)c(NC(=O)CN(C)C(=O)COc2ccc3ccccc3c2)c1	nt	-0.6	-3	5	-7	38
Nc1ccc(-c2nc3cc([N+](=O)[O-])ccc3o2)cc1	-19	-0.5	0	nt	-12	8
CN(Cc1ccccc1)C(=O)c1cccc(NC(=O)Cc2ccc(NC(=O)C3CCN(C(=O)C4CC4)CC3)cc2)c1	nt	3.0	9	0	4	9
CC(=O)c1sc(NC(=O)c2ccc3c(c2)OCO3)nc1C	7	0.3	0	5	-5	-5
Cc1ccc(-c2cc(C(F)F)n3ncc(C(=O)N4CCN(c5cccc(C)c5C)CC4)c3n2)cc1	-10	-1.1	-9	0	-10	1
Nc1nc(SCc2ccc(Cl)cc2Cl)nc2nc3c(cc12)CCCC3	-2	1.0	-8	18	-26	19
O=C(Cn1cnc([N+](=O)[O-])c1)Nc1ccc(F)c(Cl)c1	7	0.3	-1	3	-11	-9
COCCN1CCC(CO)C1 (stereo unspecified)	nt	0.8	12	8	-3	12
CCC1(C)Cc2c(sc3c2c2ncnn2c2nnc(SCC(=O)NCc4ccco4)n32)CO1 (stereo unspecified)	0	0.6	?	?	5	2
CCOC(=O)N1CCN(c2ncnc3c2[nH]c2ccc(F)cc23)CC1	-17	0.3	-5	-9	-8	3
Cc1ccc(-c2csc3nc4ccc(C(=O)NCCO)cc4c(=O)n23)cc1	-24	3.9	-7	-10	4	22
c1ccc(-n2cnc3ccccc32)cc1	-14	-0.1	0	13	-7	1
CC(C)(C)c1ccc(S(=O)(=O)N2CCSC2)cc1	-8	2.2	10	6	14	16
C=CCC1(NC(C)c2ccccc2)CCCCC1 (stereo unspecified)	-2	-0.3	17	15	-8	-6
CCc1ccccc1NC(=O)CSc1nc2ccccc2n1CC(=O)N(C)C	5	-0.4	1	13	-9	-9
O=C1CN(c2ccccc2F)C(=O)CN1c1ccccc1F	-10	-0.8	1	1	-11	12
COc1ccc(C(=O)NCCN2CCOCC2)cc1[N+](=O)[O-]	?	-0.4	4	4	-2	4
CCOC(=O)c1cccnc1SCC(=O)NCc1ccccc1	-1	3.4	3	2	-12	2
C=CCNc1nc(Nc2ccc(Cl)cc2)nc(OC)n1	4	3.4	4	-5	-14	7
COC(=O)c1sc(N2CCCCC2)c(C#N)c1N	-1	-0.7	-15	-1	-1	-4
Cc1nn(C)cc1NC(=O)CCSc1nc(-c2ccco2)cc(C(F)(F)F)n1	-18	-1.3	-11	-1	-15	-11
S=c1nc(Cc2ccc(Cl)cc2)[nH]c2ccccc12	6	2.1	-6	-2	-4	-25
CCOC(=O)C1CCCN(Cc2ccccc2F)C1 (stereo unspecified)	29	0.0	0	2	-15	6
CCn1c(SCC(=O)NC(=O)Nc2ccc3c(c2)OCCO3)nnc1-c1cccs1	11	0.6	-14	-1	2	22
C/C(=N\NC(=S)NC(C)C)c1ccc(Cl)c([N+](=O)[O-])c1	-6	0.8	-16	nt	-14	33
Cc1ccc(S(=O)(=O)N(C)c2ccc(OC(=O)c3ccc(=O)[nH]c3)cc2)cc1	-19	4.4	0	nt	-33	28
CC(=O)c1cc(-c2ccc(F)cc2)n(CCC(=O)Nc2cccc(C)n2)c1C	-17	0.2	-16	0	-8	-3
CCc1ccccc1N1C(=O)C2CC(C)=C(C)CC2C1=O (stereo unspecified)	-6	0.7	-2	-5	-4	-7
O=C(NC1CCCCCC1)c1ccc(S(=O)(=O)NCc2ccco2)cc1	1	0.5	-11	-12	1	42
Cc1ncsc1C(=O)Nc1nc2c(s1)CCCC2	-22	-0.2	2	5	-9	1
CC(C)CSc1nc2ccccc2n1CC(=O)O	-11	-0.5	2	7	-3	-14
N#Cc1ccccc1S(=O)(=O)N1CCN(c2ccc(S(=O)(=O)N3CCOCC3)cn2)CC1	-19	10	-3	2	-10	-9
CCn1nc(C)cc1C(=O)n1nc(C)c(Sc2ncccn2)c1C	nt	0.4	-6	1	-1	-5

For reference, part of the list above:
SMILES	TRPV1 PAM	TRPML1 ag	Six1-Eya2 blk	CtBP-E1A blk	D2 PAM	TRPML1 blocker
CCc1ccccc1N1C(=O)C2CC(C)=C(C)CC2C1=O (stereo unspecified)	-6	0.7	-2	-5	-4	-7
O=C(NC1CCCCCC1)c1ccc(S(=O)(=O)NCc2ccco2)cc1	1	0.5	-11	-12	1	42
Cc1ncsc1C(=O)Nc1nc2c(s1)CCCC2	-22	-0.2	2	5	-9	1
CC(C)CSc1nc2ccccc2n1CC(=O)O	-11	-0.5	2	7	-3	-14
N#Cc1ccccc1S(=O)(=O)N1CCN(c2ccc(S(=O)(=O)N3CCOCC3)cn2)CC1	-19	10	-3	2	-10	-9
CCn1nc(C)cc1C(=O)n1nc(C)c(Sc2ncccn2)c1C	nt	0.4	-6	1	-1	-5
